High-throughput results: PubChem, several laboratories
HSV replic up: HSV replication enhancement | HSV replication augmentation in cells, fold increase | maximum fold increase | 220,000 tested, 0.005% active;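 active means peak rise of 1.5-fold or more in the series; tested in PC3 cells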;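 further: first round at 10 µM; read as green reporter fluorescence; hits show the peak of a series up to 25 µM; 1 = signal of infected wells without compound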
PKD1 kinase inh: inhibitors of human PKD1 kinase. Q15139. AID 797. 200,000 tested, 0.056% active. PKD1 kinase fluorescence polarization assay. inhibition, %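 (about 10 µM by stock and volumes)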;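 active means inhibition of 50% or more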;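 further: controls were vehicle for no effect and a reference inhibitor for full effect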
INS promoter inh: TRM-6 insulin promoter activity inhibition | inhibition, % at 2 µM | TRM-6 cells (human fetal islet line), insulin promoter-eGFP reporter, imaging; reporter expression induced with tamoxifen | 130,000 tested, 0.9% active | AID 1273;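 active means inhibition above the mean plus 3 SD, with well images judged a real hit on visual review, cut at about 60% in these data, passing the limit was not always enough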
RGS16-Gao: modulates binding between human RGS16 and Galphao. bead-based flow cytometry RGS16-Galphao binding, fluorescence; actives lie on both sides. binding response (% of control), % at 10 µM. 220,000 tested, 0.38% active. AID 1441;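 active means below 25% or above 175%, edge rows of some plates excepted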;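 further: Galphao activated by GDP with aluminum fluoride before binding; 100% = wells without compound and 0% = beads without RGS; some results beyond the cut were filed as inactive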
Target sequence (O15492 whole entry, looked up): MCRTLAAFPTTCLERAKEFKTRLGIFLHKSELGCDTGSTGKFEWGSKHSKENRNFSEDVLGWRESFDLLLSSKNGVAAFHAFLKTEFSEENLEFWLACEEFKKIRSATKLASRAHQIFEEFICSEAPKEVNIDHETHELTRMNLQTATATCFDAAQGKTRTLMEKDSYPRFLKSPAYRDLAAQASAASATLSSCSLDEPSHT
Target sequence (P09471 whole entry, looked up): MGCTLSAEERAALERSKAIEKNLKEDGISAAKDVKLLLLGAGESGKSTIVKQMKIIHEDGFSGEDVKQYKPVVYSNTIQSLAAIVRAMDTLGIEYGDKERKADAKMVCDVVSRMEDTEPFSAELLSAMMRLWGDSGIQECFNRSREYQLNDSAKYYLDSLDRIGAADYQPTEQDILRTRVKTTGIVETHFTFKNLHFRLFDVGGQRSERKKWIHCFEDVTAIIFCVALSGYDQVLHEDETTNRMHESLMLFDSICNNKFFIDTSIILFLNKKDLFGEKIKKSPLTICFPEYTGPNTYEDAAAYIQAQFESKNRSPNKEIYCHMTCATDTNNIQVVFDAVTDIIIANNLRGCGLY
GALR2 ag: activates the human galanin receptor 2. O43603. GALR2-expressing cells, agonist activation read-out. activation, %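 (tested at 5 µM)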. 140,000 tested, 0.48% active. AID 803;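 active means above mean plus 3 SD of all compounds, about 5% in these data, not always enough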;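 further: 0% = vehicle buffer wells and 100% = reference agonist at full effect; tested in CHO reporter cells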
Target sequence (O43603 whole entry, looked up): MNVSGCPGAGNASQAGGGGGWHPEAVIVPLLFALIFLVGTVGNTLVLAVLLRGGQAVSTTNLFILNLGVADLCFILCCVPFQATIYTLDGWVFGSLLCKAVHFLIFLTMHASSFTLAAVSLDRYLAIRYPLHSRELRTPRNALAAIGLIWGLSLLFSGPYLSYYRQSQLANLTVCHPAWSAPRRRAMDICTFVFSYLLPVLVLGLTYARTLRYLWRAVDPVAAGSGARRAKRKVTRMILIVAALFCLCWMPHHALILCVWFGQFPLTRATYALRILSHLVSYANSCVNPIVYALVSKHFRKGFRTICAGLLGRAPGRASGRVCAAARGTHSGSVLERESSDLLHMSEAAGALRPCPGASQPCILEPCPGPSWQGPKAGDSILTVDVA
INS promoter inh cell count: recorded beside INS promoter inh, whose call it bears; normalized cell count, %; measured here: cell count, toxicity; reference of the scale not given here;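 cells exposed to compound for 48 h; stained nuclei by imaging scaled within each plate; lower means fewer cells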
HSV replic up primary fold: further read-out of HSV replic up, marked with its call; fold increase; compound at 10 µM; measured here: primary screen fold increase 10 uM; tested in PC3 cells;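 GFP signal in the first replicate; 1 = infected wells without compound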
* = called active by the depositor.

O=C(Cc1ccc(-c2ccccc2)cc1)NNC(=S)NCc1ccco1 was read as HSV replic up inactive, PKD1 kinase inh -114, INS promoter inh 0, RGS16-Gao 100, INS promoter inh cell count 128 and HSV replic up primary fold 0.98.
NC(=S)Nc1ccc(Cl)cc1Cl was read as HSV replic up inactive, RGS16-Gao 100 and HSV replic up primary fold 0.99.
Screening O=C(N/N=C/c1cc2c(cc1[N+](=O)[O-])OCO2)c1cccnc1 returned HSV replic up inactive, RGS16-Gao 98 and HSV replic up primary fold 0.96.
`CC(C)(C)NC(=O)NC(=O)COC(=O)CNC(=O)c1cc(Cl)cc([N+](=O)[O-])c1` gave HSV replic up inactive, PKD1 kinase inh -13, INS promoter inh -33, RGS16-Gao 101, INS promoter inh cell count 39 and HSV replic up primary fold 0.99.
`Cc1ccc(C)n1-c1ccc(C(=O)N2CCOCC2)cc1` gave HSV replic up inactive, PKD1 kinase inh 2, INS promoter inh 6, RGS16-Gao 82, GALR2 ag -0.1, INS promoter inh cell count 76 and HSV replic up primary fold 0.94.
`Cc1ccc(NC(=O)COc2ccc(CCO)cc2-n2nc3ccccc3n2)cc1C` gave HSV replic up inactive, PKD1 kinase inh -8, INS promoter inh 7, RGS16-Gao 111, GALR2 ag 4.6, INS promoter inh cell count 88 and HSV replic up primary fold 0.77.
Screening Cc1c(C(=O)Nc2ccc(OC(F)(F)F)cc2)sc2nc3n(c(=O)c12)CCC3 returned HSV replic up inactive, PKD1 kinase inh -1, INS promoter inh 10, RGS16-Gao 104, GALR2 ag -0.6, INS promoter inh cell count 96 and HSV replic up primary fold 0.89.
`CN(C)c1ccc(CNn2cnnc2SCc2ccccc2F)cc1` gave HSV replic up inactive, PKD1 kinase inh 0, INS promoter inh 8, RGS16-Gao 105, GALR2 ag -0.2, INS promoter inh cell count 60 and HSV replic up primary fold 1.1.
`Cc1ccc(CNS(=O)(=O)NCc2cccs2)cc1` gave PKD1 kinase inh -6, INS promoter inh 77*, RGS16-Gao 106 and INS promoter inh cell count 97*.
`CCCCNC(=O)c1cc(C)no1` gave HSV replic up inactive, PKD1 kinase inh 1, INS promoter inh -14, RGS16-Gao 103, INS promoter inh cell count 125 and HSV replic up primary fold 0.89.

Brought forward from above: 4 compounds, followed by the next part.
Screening Cc1c(C(=O)Nc2ccc(OC(F)(F)F)cc2)sc2nc3n(c(=O)c12)CCC3 returned HSV replic up inactive, PKD1 kinase inh -1, INS promoter inh 10, RGS16-Gao 104, GALR2 ag -0.6, INS promoter inh cell count 96 and HSV replic up primary fold 0.89.
`CN(C)c1ccc(CNn2cnnc2SCc2ccccc2F)cc1` gave HSV replic up inactive, PKD1 kinase inh 0, INS promoter inh 8, RGS16-Gao 105, GALR2 ag -0.2, INS promoter inh cell count 60 and HSV replic up primary fold 1.1.
`Cc1ccc(CNS(=O)(=O)NCc2cccs2)cc1` gave PKD1 kinase inh -6, INS promoter inh 77*, RGS16-Gao 106 and INS promoter inh cell count 97*.
`CCCCNC(=O)c1cc(C)no1` gave HSV replic up inactive, PKD1 kinase inh 1, INS promoter inh -14, RGS16-Gao 103, INS promoter inh cell count 125 and HSV replic up primary fold 0.89.
Screening CCOc1nc(-c2ccccc2Cl)ccc1C#N returned HSV replic up inactive, PKD1 kinase inh 0, INS promoter inh 4, RGS16-Gao 104, GALR2 ag -4.9, INS promoter inh cell count 108 and HSV replic up primary fold 0.99.
`Cc1ccccc1CN1CCN(CC2CC3C=CC2C3)CC1` (centres undefined) gave HSV replic up inactive, PKD1 kinase inh -6, INS promoter inh -4, RGS16-Gao 103, GALR2 ag -0.6, INS promoter inh cell count 207 and HSV replic up primary fold 1.
`CC1(C)CC(=O)C2=C(C1)Oc1nc3ccccc3cc1C2C(C#N)C#N` (centres undefined) gave HSV replic up inactive, PKD1 kinase inh 5, INS promoter inh 38, RGS16-Gao 104, GALR2 ag -1.2, INS promoter inh cell count 150 and HSV replic up primary fold 0.71.
Screening Cc1cc(C)n2nc(CCc3ccccc3)nc2n1 returned HSV replic up inactive, PKD1 kinase inh 4, INS promoter inh 0, RGS16-Gao 93, GALR2 ag -1.3, INS promoter inh cell count 70 and HSV replic up primary fold 0.82.
`Cc1onc(-c2ccccc2)c1C(=O)N1CCN(c2ncccn2)CC1` gave HSV replic up inactive, PKD1 kinase inh -4, RGS16-Gao 95 and HSV replic up primary fold 0.99.
Cc1ccccc1S(=O)(=O)NNC(=O)C(=O)NNc1ccccn1 was read as PKD1 kinase inh 3, INS promoter inh 25, RGS16-Gao 102, GALR2 ag -2.6 and INS promoter inh cell count 71.
O=C(COC(=O)CC12CC3CC(CC(C3)C1)C2)Nc1ncc(Cl)cc1Cl was read as HSV replic up inactive, PKD1 kinase inh -6, INS promoter inh 100*, RGS16-Gao 98, GALR2 ag -2.4, INS promoter inh cell count 9.5* and HSV replic up primary fold 0.94.
CCOC(=O)CNC(=O)CSc1nnc(-c2c[nH]c3ccccc23)n1CC was read as HSV replic up inactive, RGS16-Gao 111 and HSV replic up primary fold 0.96.
O=[N+]([O-])c1ccc2nc(NCCCO)nc(-c3ccccc3)c2c1 was read as HSV replic up inactive, PKD1 kinase inh -4, INS promoter inh -153, RGS16-Gao 106, GALR2 ag -0.3, INS promoter inh cell count 128 and HSV replic up primary fold 0.83.
Screening O=C(CSc1nc2c(c(=O)n1-c1ccc(Br)cc1)SCC2)Nc1nccs1 returned HSV replic up inactive, PKD1 kinase inh -5, INS promoter inh 45, RGS16-Gao 91, GALR2 ag -0.1, INS promoter inh cell count 145 and HSV replic up primary fold 1.
Screening CC(C)c1ccc(CNC(=O)C(=O)Nc2nccs2)cc1 returned HSV replic up inactive, PKD1 kinase inh 5, RGS16-Gao 97 and HSV replic up primary fold 0.98.
Screening NC(=O)c1nnn(-c2ccc([N+](=O)[O-])cc2)c1-c1ccccc1 returned HSV replic up inactive, RGS16-Gao 93 and HSV replic up primary fold 1.1.
`Fc1ccc(NC(=S)Nc2ccc3nccnc3c2)cc1` gave HSV replic up inactive, PKD1 kinase inh -7, INS promoter inh 20, RGS16-Gao 99, INS promoter inh cell count 113 and HSV replic up primary fold 1.
`COc1ccc(N2CCN(CCCNC(=O)CC3Oc4ccc(C)cc4NC3=O)CC2)cc1` (centres undefined) gave HSV replic up inactive, PKD1 kinase inh -3, INS promoter inh -86, RGS16-Gao 96, GALR2 ag -0.2, INS promoter inh cell count 100 and HSV replic up primary fold 0.99.
COc1cccc(/C=C/C(=O)NNC(=O)CCN2CCN(Cc3ccccc3)CC2)c1 was read as HSV replic up inactive, RGS16-Gao 108 and HSV replic up primary fold 0.82.
CCOC(=O)C1CCCN(C2CCN(Cc3nc(-c4ccccc4)no3)CC2)C1 (centres undefined) was read as HSV replic up inactive, PKD1 kinase inh -2, RGS16-Gao 96 and HSV replic up primary fold 1.1.
CCOC(=O)c1sc2nc(C)nc(SCC(N)=O)c2c1C was read as HSV replic up inactive, PKD1 kinase inh -4, INS promoter inh 3, RGS16-Gao 103, GALR2 ag -0.2, INS promoter inh cell count 102 and HSV replic up primary fold 1.1.
Screening O=C(CCCc1nc2ccccc2s1)NCc1ccccc1 returned HSV replic up inactive, PKD1 kinase inh -5, INS promoter inh 21, RGS16-Gao 106, GALR2 ag -1.1, INS promoter inh cell count 137 and HSV replic up primary fold 1.
`O=c1nc(Nc2ccc(Br)cc2)sc2ccc([N+](=O)[O-])cc12` gave HSV replic up inactive, RGS16-Gao 100 and HSV replic up primary fold 0.82.
Cc1ccc(C)c2[nH]c(=O)c(CN(Cc3cccnc3)C(=S)NCc3ccco3)cc12 was read as HSV replic up inactive, RGS16-Gao 100 and HSV replic up primary fold 0.9.

Random excerpt: 2 records from the list.
CCOC(=O)c1sc2nc(C)nc(SCC(N)=O)c2c1C was read as HSV replic up inactive, PKD1 kinase inh -4, INS promoter inh 3, RGS16-Gao 103, GALR2 ag -0.2, INS promoter inh cell count 102 and HSV replic up primary fold 1.1.
Screening NC(=O)c1nnn(-c2ccc([N+](=O)[O-])cc2)c1-c1ccccc1 returned HSV replic up inactive, RGS16-Gao 93 and HSV replic up primary fold 1.1.

(listing goes on)
COc1cc(SC)ccc1C(=O)NCCN1CCOCC1 was read as HSV replic up inactive, RGS16-Gao 102 and HSV replic up primary fold 1.
`O=C1CC(Sc2nnnn2C2CCCCC2)C(=O)N1c1ccccc1` (centres undefined) gave HSV replic up inactive, PKD1 kinase inh 0, INS promoter inh 50, RGS16-Gao 96, GALR2 ag -1.6, INS promoter inh cell count 128 and HSV replic up primary fold 0.72.
`COc1cccc(CN(C)CC(=O)Nc2ccccc2N2CCOCC2)c1OC` gave HSV replic up inactive, PKD1 kinase inh -8, RGS16-Gao 79 and HSV replic up primary fold 1.1.
C=CCc1cc(C)ccc1OCCOCCn1ccnc1 was read as HSV replic up inactive, PKD1 kinase inh -3, INS promoter inh -23, RGS16-Gao 47, GALR2 ag -0.5, INS promoter inh cell count 145 and HSV replic up primary fold 1.
Screening Cn1nnnc1SCC(=O)Nc1ccccc1Cl returned HSV replic up inactive, PKD1 kinase inh 5, INS promoter inh 48, RGS16-Gao 101, GALR2 ag -1.7, INS promoter inh cell count 99 and HSV replic up primary fold 0.96.
COc1ccc(C(=O)N2N=C3CC(C)(C)OCC3C2c2ccccc2)cc1 (centres undefined) was read as HSV replic up inactive, PKD1 kinase inh -8, INS promoter inh 25, RGS16-Gao 97, GALR2 ag -1.8, INS promoter inh cell count 125 and HSV replic up primary fold 1.
For COc1ccc(C(C)(C)C)cc1NC(=O)COC(=O)c1ccc([N+](=O)[O-])o1 the results were HSV replic up inactive, PKD1 kinase inh -2, INS promoter inh 20, RGS16-Gao 96, INS promoter inh cell count 122 and HSV replic up primary fold 0.98.
For CN(C)/C=N/c1nc2nccc(-c3cccs3)n2n1 the results were HSV replic up inactive, PKD1 kinase inh -3, INS promoter inh 14, RGS16-Gao 100, INS promoter inh cell count 62 and HSV replic up primary fold 0.87.
For CC1(C(=O)O)CCC(C(=O)Nc2ccccc2)C1(C)C (centres undefined) the results were HSV replic up inactive, PKD1 kinase inh -1, INS promoter inh -13, RGS16-Gao 97, GALR2 ag -2.2, INS promoter inh cell count 77 and HSV replic up primary fold 0.71.
CC(C)c1cccc(C(C)C)c1NC(=O)CNCc1ccccc1F was read as HSV replic up inactive, PKD1 kinase inh -12, INS promoter inh -54, RGS16-Gao 107, GALR2 ag -0.1, INS promoter inh cell count 93 and HSV replic up primary fold 1.1.
`CCN(CC)C(=O)c1cc2c(=O)n3ccccc3nc2s1` gave HSV replic up inactive, PKD1 kinase inh -11, RGS16-Gao 103, GALR2 ag -1.4 and HSV replic up primary fold 0.95.
CC1(C(=O)NC2CCCCCCC2)CC1(Cl)Cl (centres undefined) was read as HSV replic up inactive, PKD1 kinase inh 3, RGS16-Gao 101, GALR2 ag 0.2 and HSV replic up primary fold 0.91.
`CCN=C1SC(C(=O)Nc2ccc(OCC)cc2)CC(=O)N1CC` (centres undefined) gave HSV replic up inactive, PKD1 kinase inh 6, INS promoter inh -12, RGS16-Gao 96, INS promoter inh cell count 142 and HSV replic up primary fold 0.95.
For Cc1cc2nc(SCCOC(=O)Nc3ccccc3)nc(C)c2cc1C the results were HSV replic up inactive, PKD1 kinase inh 4, INS promoter inh 8, RGS16-Gao 116, GALR2 ag -1.3, INS promoter inh cell count 74 and HSV replic up primary fold 0.88.
For COc1ccc(C(=O)n2c(C)c(CCO)c(=O)n2C)cc1 the results were HSV replic up inactive, PKD1 kinase inh 5, RGS16-Gao 102 and HSV replic up primary fold 0.97.
`CCOC(=O)N1CCN(C2CC(=O)N(c3ccc(C)cc3)C2=O)CC1` (centres undefined) gave HSV replic up inactive, PKD1 kinase inh 3, INS promoter inh -31, RGS16-Gao 102, GALR2 ag -5.6, INS promoter inh cell count 204 and HSV replic up primary fold 0.92.
Screening CCCCCCn1c(=O)c(Cc2ccccc2)c(O)c2ccccc21 returned HSV replic up inactive, PKD1 kinase inh -5, RGS16-Gao 95 and HSV replic up primary fold 0.85.
For Nc1nc(SCC(=O)NCc2ccccc2)n[nH]1 the results were HSV replic up inactive, PKD1 kinase inh -3, INS promoter inh 3, RGS16-Gao 96, GALR2 ag -1.8, INS promoter inh cell count 96 and HSV replic up primary fold 0.96.
O=C(Cn1nc(-c2ccccc2)ccc1=O)Nc1ccc(NC(=O)c2ccccn2)cc1 was read as HSV replic up inactive, PKD1 kinase inh -4, RGS16-Gao 101 and HSV replic up primary fold 0.81.
COc1cccc(/C=N/NC(=O)CSc2ccccc2C)c1OC was read as HSV replic up inactive, PKD1 kinase inh -15, INS promoter inh -50, RGS16-Gao 106, GALR2 ag -1.6, INS promoter inh cell count 116 and HSV replic up primary fold 1.
O=S(=O)(NCCN1CCOCC1)c1cccs1 was read as HSV replic up inactive, PKD1 kinase inh -1, RGS16-Gao 100 and HSV replic up primary fold 0.91.
